HNF4A DNA FP: change in binding of human HNF4 alpha to DNA | P41235 | HNF4a-FITC DNA binding, fluorescence polarization, 1 h | activity change, % at 10 µM | 360,000 tested, 0.3% active; in the data active means activity change above about 30%, passing the limit was not always enough;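 further: controls were the assay level and a saturating level of protein; the project sought stronger binding though the title names inhibitors; some compounds called inactive have numbers as strong as hits; positive values seem to mean higher polarization but the record does not say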
E coli growth: E. coli growth inhibition; 330,000 tested, 0.21% active; OD600 absorbance (concentration not given with the values); AID 1053175; Escherichia coli growth, OD600, 23 h; stronger effect = lower value;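 active means OD600 absorbance below the run mean of sample wells minus 3.6 SD, in any replicate, cut at about 0.56 in these data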;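 further: stock transfer was 300 nL into about 60 µL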
ALR H2O2 inh: inhibitors of human sulfhydryl oxidase ALR; P55789; AID 485317; purified ALR, DTT oxidation, H2O2 HRP-luminol luminescence; 290,000 tested, 3.8% active; inhibition, % (no concentration beside the values);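 active means mean and each replicate at 75% or more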;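 further: stock transfer was 7.5 nL into about 7.5 µL; 0% = neutral wells and 100% = wells with inactivated enzyme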
Target sequence (P55789 whole entry, looked up): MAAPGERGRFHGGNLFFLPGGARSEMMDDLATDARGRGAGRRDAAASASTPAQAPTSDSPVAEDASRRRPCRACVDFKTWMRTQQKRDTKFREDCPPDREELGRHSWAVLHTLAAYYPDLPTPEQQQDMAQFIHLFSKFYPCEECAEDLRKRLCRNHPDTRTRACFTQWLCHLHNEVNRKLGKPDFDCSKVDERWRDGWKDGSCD
Ecoli rRNA inh: selective bacterial rRNA inhibition in E. coli | 350,000 tested, 1.6% active | GFP signal change (wild-type ribosome), % (concentration not given with the values) | E. coli WT GFP vs humanized-ribosome RFP mutants, fluorescence, 24 h; stronger effect = lower value; DMSO median 0, no signal -100 | AID 720706;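 active means significant combined selectivity score with lowered wild-type GFP, culture density cut under 30%, mutant RFP and density less affected; inactive means any of these conditions unmet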; further: one replicate is shown; some compounds called inactive have numbers as strong as hits
FGF22 binding: shifts melting point of recombinant human FGF22 | AID 651658 | recombinant FGF22 thermal shift, SYPRO orange fluorescence; percent of sucrose octasulfate shift, DMSO zero | calls only at 9.99 µM | Q9HCT0 | 340,000 tested, 1.5% active;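 active means melting point raised past a set limit in the mean and every replicate; three in four hits are not shown here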
Target sequence (Q9HCT0 whole entry, looked up): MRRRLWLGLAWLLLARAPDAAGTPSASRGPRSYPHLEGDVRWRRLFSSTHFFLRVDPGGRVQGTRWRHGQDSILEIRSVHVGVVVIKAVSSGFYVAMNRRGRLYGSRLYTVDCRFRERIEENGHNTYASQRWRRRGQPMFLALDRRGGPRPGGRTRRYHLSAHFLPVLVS
B2AR ag: activates human beta-2 adrenergic receptor causing internalization; P07550; 340,000 tested, 0.43% active; response, % (test concentration not listed); Am2.2-beta2AR cells, FAP receptor internalization, flow cytometry; reference of the scale not given here;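 active means response above a set limit, near 3 SD of response in nonfluorescent compounds, cut at about 42% in these data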;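 further: stock transfer was 100 nL into about 11 µL; a reference agonist was the positive control; negative values mostly stem from fluorescent compounds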
Target sequence (P07550 whole entry, looked up): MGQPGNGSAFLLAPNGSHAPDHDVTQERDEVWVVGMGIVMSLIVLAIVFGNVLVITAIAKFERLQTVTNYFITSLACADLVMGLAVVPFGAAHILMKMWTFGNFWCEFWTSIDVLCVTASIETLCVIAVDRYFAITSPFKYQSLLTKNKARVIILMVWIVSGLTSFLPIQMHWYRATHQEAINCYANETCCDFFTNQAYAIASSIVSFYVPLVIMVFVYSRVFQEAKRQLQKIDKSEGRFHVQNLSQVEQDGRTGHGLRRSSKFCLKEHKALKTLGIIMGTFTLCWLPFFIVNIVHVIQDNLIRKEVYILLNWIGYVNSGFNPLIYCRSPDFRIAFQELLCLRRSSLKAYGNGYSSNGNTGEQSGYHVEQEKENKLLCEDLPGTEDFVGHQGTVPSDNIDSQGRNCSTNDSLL
UCH37 inh: human UCH37 deubiquitinating enzyme inhibition; Q9Y5K5; purified proteasome/UCH37, Ub-AMC cleavage fluorescence; inhibition, % (concentration not given with the values); 330,000 tested, 0.33% active; AID 588478;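 active means mean of two replicates above 20%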;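 further: 0% = compound-free wells with enzyme and 100% = wells lacking proteasome; stock transfer was 100 nL into about 20 µL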
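Material: Human UCH37 enzyme supplied as purified proteasome complex | Schedule: 30 min preincubation with enzyme, 25 min cleavage at room temperature | Detection: AMC fluorescence 355/460 nm | Measure: % inhibition of Ub-AMC cleavage fluorescence | Controls: Wells without proteasome as full block, compound-free enzyme plus substrate as uninhibited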
Ecoli rRNA inh OD600: recorded beside Ecoli rRNA inh, whose call it bears; OD600 change, %; measured here: OD600 growth;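 optical density of the mix in the first replicate; 0 = DMSO median and -100 = no signal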
Ecoli rRNA inh RFP: recorded beside Ecoli rRNA inh, whose call it bears; RFP signal change, %; measured here: RFP humanized mutant strains;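 first replicate; 0 = DMSO median and -100 = no signal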
* hit, by the source's call; i = inactive; . = no result given.

Value order – HNF4A DNA FP, E coli growth, ALR H2O2 inh, Ecoli rRNA inh, Ecoli rRNA inh OD600, Ecoli rRNA inh RFP, FGF22 binding, B2AR ag, UCH37 inh
CC(Cc1ccco1)NC(=O)c1ccc(C(F)(F)F)cc1 (stereo not drawn)
    -1.6, 0.68, -18, 3, 9, 2.1, i, 6, 4.6
CCC(=O)Nc1ccc2c(c1)nc(CCN1CCC(C)CC1)n2C
    0.3, 0.68, -11, -3, 7, -0.6, i, -12, 4.4
CC1=C(C)CC(C(=O)c2ccc(C)cc2)C(C(=O)O)C1 (stereo not drawn)
    -2.4, 0.7, ., ., ., ., ., 2, 1.6
Cc1ccc(C)c(C(=O)NC2CC(C)(C)NC(C)(C)C2)c1
    3.3, 0.7, ., ., ., ., ., 15, -1.3
COc1ccc(NC(=O)COC(=O)c2ccc3c(c2)OCCO3)cc1
    2.6, ., ., 10, 10, 2.1, i, ., .
CCOC(=O)c1cc(C(=O)OCC)c2ccccn2c1=O
    -1.5, 0.69, -5, ., ., ., ., 7, .
O=C(c1ccc(Cl)c(S(=O)(=O)N2CCCC2)c1)N1CCN(c2ccccn2)CC1
    0.9, 0.64, 16, ., ., ., ., -8, 3.5
COc1cccc(/C=N/NC(=O)c2nnn(-c3nonc3N)c2CN(C)c2ccccc2)c1
    0.9, ., -31, -21, -23, -1.2, i, 11, .
Cc1cccc(C)c1NC1=NC(=S)N(c2ccc(C(=O)O)cc2)C12CCCCC2
    -4.0, 0.68, -2, -3, -1, 5.1, i, -4, -2.3
COc1cccc(Oc2c(C)oc3c(CN4CCCC4)c(O)ccc3c2=O)c1
    0.6, 0.68, 2, 8, -3, -1.1, i, -3, i
CSCCC(NC(=O)/C(=C\c1ccc(Cl)cc1)NC(=O)c1ccccc1)C(=O)O (stereo not drawn)
    3.1, 0.66, -11, 5, -3, 1.3, i, 1, 0.5
CCOC(=O)c1cnc2ccccc2c1Nc1ccc2c(c1)OCCO2
    -14, 0.67, 0, -55, -77, -18, i, -5, -0.4
NC(=O)C(c1ncc(C(F)(F)F)cc1Cl)c1c(Cl)cccc1Cl (stereo not drawn)
    1.7, 0.65, 0, ., ., ., ., -5, 0.9
Cc1ccc2nc(SCC(=O)N(C)C3CCS(=O)(=O)C3)[nH]c2c1 (stereo not drawn)
    -5.1, 0.71, -8, 7, 18, -2.7, i, 0, 3.7
C=CCN(c1ccccc1C(=O)O)S(=O)(=O)/C=C/c1ccccc1
    6.7, 0.68, 0, 2, -7, 1.4, i, -5, 1.2

In the list so far, these have fluorine.
Value order – HNF4A DNA FP, E coli growth, ALR H2O2 inh, Ecoli rRNA inh, Ecoli rRNA inh OD600, Ecoli rRNA inh RFP, FGF22 binding, B2AR ag, UCH37 inh
CC(Cc1ccco1)NC(=O)c1ccc(C(F)(F)F)cc1 (stereo not drawn)
    -1.6, 0.68, -18, 3, 9, 2.1, i, 6, 4.6
NC(=O)C(c1ncc(C(F)(F)F)cc1Cl)c1c(Cl)cccc1Cl (stereo not drawn)
    1.7, 0.65, 0, ., ., ., ., -5, 0.9

(more compounds)
Value order – HNF4A DNA FP, E coli growth, ALR H2O2 inh, Ecoli rRNA inh, Ecoli rRNA inh OD600, Ecoli rRNA inh RFP, FGF22 binding, B2AR ag, UCH37 inh
COc1ccc(Cl)cc1NC(=O)C(OC)c1ccccc1 (stereo not drawn)
    1.0, 0.74, -39, -1, -8, -5.3, i, -4, 0.8
C=CCN1C(=O)/C(=C/c2ccccc2)S/C1=N/c1nccs1
    -4.3, ., -1, ., ., ., ., 6, .
CCN(CC)c1ccc(/C=N/NC(=S)NC)c(O)c1
    3.2, ., 98*, -7, -7, 4.4, i, 2, .
COc1ccccc1-c1csc(C(NC(C)=O)c2ccc(F)c(F)c2)n1 (stereo not drawn)
    0.4, ., ., -20, -40, -2.5, i, ., .
CCOc1ccc(NC(=O)CCNS(=O)(=O)c2cccc3nonc23)cc1
    1.1, 0.71, ., -8, -15, 11, i, 0, 3.7
CCC1COC(c2cccn2Cc2ccccc2Cl)=N1 (stereo not drawn)
    -0.5, 0.71, -6, -12, -10, 0.8, i, -8, 4.8
CCc1nc(Sc2nnnn2-c2ccccc2)c2c3c(sc2n1)CCCC3
    -0.6, 0.67, 10, 2, 6, -6.6, i, -1, -8.5
Cc1c(Br)ccc(NC(=O)Cn2nc(-c3cccs3)ccc2=O)c1C
    -4.1, 0.66, -2, 17, 11, 6.0, i, -13, -0.7
OC1(c2cccnc2)CCN(Cc2nnnn2Cc2ccccc2)CC1
    4.7, 0.71, -3, 7, 2, -1.2, i, -5, 1.9
CCOC(=O)N1CCN(C(=O)CN(Cc2ccccc2)S(=O)(=O)c2ccc(OC)c(C)c2)CC1
    -0.6, 0.65, -19, ., ., ., ., -8, 0.8
COc1cc(C)ccc1OCc1cc(C(=O)N2CCCCCC2)no1
    3.2, 0.68, ., -26*, -18*, -2.4*, i, 9, 4.9
N#Cc1cccc(N=Cc2c(O)ccc3ccccc23)c1
    -1.1, 0.64, ., ., ., ., ., 19, 6.8
CC(C)C[C@@H]1Cc2[nH][nH]c(=O)c2[C@H](C)O1
    1.3, ., ., 19, 16, 1.1, i, ., .
COc1cc(C(=O)OCCNC(=O)c2ccccc2)cc(OC)c1OC
    1.6, 0.67, -6, -1, -12, -1.5, i, -3, 3.0
CC12CCC(c3n[nH]c(=S)nc31)C2(C)C (stereo not drawn)
    -3.4, 0.67, 19, ., ., ., ., -9, 4.1
COc1ccc(C(=O)N/N=C(\C)CC(=O)Nc2ccc(N(C)C)cc2)c(OC)c1
    -1.8, ., 22, -4, 1, -1.3, i, -4, .
CCOc1ccccc1N1CCN(CC(=O)Nc2ccccc2C(=O)NC2CC2)CC1
    3.7, 0.69, ., -10, -5, 3.6, i, 9, 1.1
CC1CN(CC(=O)Nc2cc(S(=O)(=O)N3CCCC3)ccc2Cl)CC(C)O1 (stereo not drawn)
    1.7, 0.69, -4, 6, -1, -2.4, i, 4, 4.2
COc1cc(/C=N\NC(=O)c2c(C)nc3cc(C)ccn23)ccc1O
    3.3, ., 97*, 12, -5, 2.3, i, 9, .
Cc1cc(C(=O)Nc2ccc(C(=O)O)cc2)c(C)o1
    -2.6, 0.66, ., 0, 7, 1.2, i, 2, 2.6
COc1cccc(CN2CCNC(=O)C2CC(=O)NCCCC2CCCC2)c1OC (stereo not drawn)
    -5.6, 0.64, 4, -14, -20, -1.3, i, -3, 2.5
Cn1cc([N+](=O)[O-])c(C(=O)N2CCCCCC2)n1
    -0.3, 0.72, -3, 16, 20, 8.1, i, -8, 2.8
Cc1ccc(NC(=O)Nc2ccccc2)nc1
    2.5, 0.61, 1, 15, 7, 0.8, i, -2, 1.6
COc1cc(/C=C2/C(=N)N3C=CSC3=NC2=O)ccc1OCCCOc1cc(C)ccc1C
    5.1, 0.66, ., ., ., ., ., 63*, -18
COc1ncnc2c1ncn2CCCNCc1ccccc1
    -2.0, ., ., 1, 6, -1.3, i, ., .
CCOC(=O)C1=C(C)NC(C)=C(C(=O)OCC)C1C(=O)OCC(=O)NC1CCCCC1
    -2.6, 0.67, -3, 0, -14, 8.5, i, 9, -42
O=C(Nc1ccccc1N1CCOCC1)c1ccc(Cl)c(S(=O)(=O)NCc2ccco2)c1
    -2.7, 0.69, -1, -8, -9, -0.2, i, -5, 2.0
CC(C)NC(=O)C1CCN(Cc2cnn(-c3ccccc3)c2-n2cccc2)CC1
    -1.1, 0.74, -3, ., ., ., ., -4, -0.3
Cc1ccc(N(C)S(=O)(=O)c2cccc(C(=O)NCCCN3CCCC3=O)c2)cc1
    -1.2, 0.66, ., -6, -6, -2.1, i, 0, 2.4
CCCC(=O)N1CCC1(C)C(=O)NS(=O)(=O)c1ccccc1Cl (stereo not drawn)
    -1.9, ., ., 2, 9, 2.1, i, ., .
O=C1C2C3C=CC(O3)C2C(=O)N1N=Cc1ccc2c(c1)OCO2 (stereo not drawn)
    -1.7, 0.67, ., 4, 12, -1.6, i, -3, 4.1
Clc1ccc2nc(N3CCCCC3)sc2c1
    1.3, 0.66, 14, -10, -12, -0.1, i, 0, -0.5
O=C(NCc1ccco1)c1ccc(COCC(F)(F)C(F)F)cc1
    4.4, 0.63, 2, ., ., ., ., 0, 1.9
Cc1ccc(NC(=O)C2(C)CCN2Cc2cccc3c2OCO3)cc1O (stereo not drawn)
    2.0, ., ., -58, -73, -20, i, ., .
Cc1nnc(SCC(=O)NC(C)(C)C)n1NCc1c(F)cccc1Cl
    0.2, 0.67, -18, 2, 1, -0.7, i, -6, 1.0
CC(=O)Nc1cc2c3ccccc3n(C)c2cc1[N+](=O)[O-]
    -3.2, 0.67, ., 8, 10, 9.2, ., -8, 5.7
Cc1ccc2oc(C(=O)Nc3ccc(S(=O)(=O)Nc4onc(C)c4C)cc3)cc(=O)c2c1
    3.7, 0.7, 34, 6, 11, -2.9, i, -5, 9.2
COCCN(Cc1cc2cc3c(cc2nc1Cl)OCO3)C(C)=O
    -3.9, 0.67, 8, 4, 2, -0.4, i, 11, 2.5
Cc1c(C(=O)N2CCCC2)c(S(=O)(=O)NCCc2ccccc2)c(C)n1C
    1.4, 0.71, -1, 8, 6, 2.4, i, -4, 3.6
CC(C)c1[nH]nc2c1C1(CCN(Cc3ccccc3)CC1)C(C#N)=C(N)O2
    -4.9, 0.71, 20, ., ., ., ., 19, 0.9
CN(c1ccccc1)S(=O)(=O)c1ccc(Cl)c(C(=O)NCCc2c[nH]c3ccccc23)c1
    1.1, 0.72, -17, -22, -14, 4.4, i, 2, 2.7
Cc1ccc(NC(=O)NC2=NN(c3ccccc3)C(=O)/C2=C2/CCCN2C)cc1
    -1.5, 0.68, -15, 10, 7, 2.6, i, 2, 2.4
CCc1nc2cc(Cl)c(Cl)cc2nc1CC
    1.4, 0.63, -18, 20, 7, 0.7, i, -3, 3.1
CCCN(CC(=O)Nc1ccccc1OC)C(=O)C1CCCC1
    -2.7, 0.68, -2, 3, 7, -0.6, i, 6, 3.9
COc1ccc(CNC(=O)C2CCC(=O)N(CCCN3CCCC3=O)C2)c(OC)c1 (stereo not drawn)
    2.9, 0.69, -4, 7, 2, 1.0, i, -5, 1.3
Cn1c(O)c(N=NC(=O)Cn2ccc(C(F)(F)F)n2)c2ccccc21
    3.8, 0.73, -6, ., ., ., i, 2, 8.9
Cc1ccccc1NC(=O)CCc1nnc2ccc(N3CCC4(CC3)OCCO4)nn12
    0.4, 0.7, -10, 4, 4, 1.4, i, 4, 0.6
Cc1cc(C(=O)O)cc(S(=O)(=O)Nc2ccccc2C(=O)NC2CC2)c1C
    -1.3, 0.68, ., -3, 4, -2.4, i, -3, -0.4

Screening results (PubChem)

A portion of the library (hit frequency here may not be typical).
